RE007 growth inh = less growth of the S. pombe RE007 Vpr strain; S. pombe RE007 Vpr strain, BacTiter-Glo ATP luminescence, 24 h; control for the full effect not named in the record; Potency, µM (doses to about 92.2 µM), for the others: top-dose activity change, negative = less growth; 360,000 tested, 0.21% active; AID 651644; active = well fitted falling curve with a large enough effect; inconclusive = small, poorly fitted or top-dose-only effect; inactive = no such curve, though single readings can be large or run the other way;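 also: % is scaled to controls: 0 for no effect and ±100 for the full control effect; nearly all actives have a fitted effect of over 50% in size; the assay follows cell death caused by Vpr and the record does not say whether a fall means rescue or toxicity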
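Fission yeast RE007 carrying one integrated HIV-1 vpr copy, seeded at OD 0.01 in PMG+AL medium with 23 nL pinned compound. Grown 24 h at 30 degrees; viability read by BacTiter-Glo luminescence after 5 min.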
SARS PLpro yeast = inhibitors of SARS-CoV papain-like protease in yeast; S. cerevisiae expressing SARS-CoV PLpro, growth rescue; control for the full effect not named in the record; 330,000 tested, 0.19% active; Potency, µM (top dose mostly 32.9 µM), without a hit: at the top dose activity, positive = growth rescue; also: 0% is about no effect; nearly all actives have a fitted effect of over 55% in size; growth read by luminescence after 48 h
Marburg entry inh = inhibitors of Marburg virus binding or cell entry | Marburg virus pseudotyped entry inhibition, cell reporter; control for the full effect not named in the record; about a third of the inactives were read at about 46 µM | 300,000 tested, 1.8% active | Potency, µM (doses to about 37.8 µM), inactives show top-dose activity change, negative = inhibition, usual class: inhibitors; active = well fitted inhibition curve with a large enough effect; inconclusive = small, poorly fitted or top-dose-only effect, or effect the other way; inactive = flat fitted curve, though single readings scatter; tested in HEK293 cells; about a fifth of its hits are not listed in these tables; also: % is scaled to controls: 0 for no effect and ±100 for the full control effect; luciferase read-out
Cruzain inh noDet = blocks cruzain activity in detergent-free assay. P25779. purified cruzain, Z-FR-AMC fluorescence, no detergent. Potency, µM, for the others: max response, negative = inhibition, usual class: inhibitors. 200,000 tested, 2.3% active. AID 1476; active = well fitted curve in the direction sought with a large enough effect; inconclusive = small, poorly fitted or top-dose-only effect, or another doubt; inactive = no such curve, though single readings can be large; an effect the other way counts as inactive or inconclusive;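 also: plate controls were enzyme without inhibitor for no effect and buffer without enzyme for full effect; nearly all actives have a fitted effect of over 40% in size; top concentration of the series not given in the record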
Target sequence (P25779 123-467 limits assumed): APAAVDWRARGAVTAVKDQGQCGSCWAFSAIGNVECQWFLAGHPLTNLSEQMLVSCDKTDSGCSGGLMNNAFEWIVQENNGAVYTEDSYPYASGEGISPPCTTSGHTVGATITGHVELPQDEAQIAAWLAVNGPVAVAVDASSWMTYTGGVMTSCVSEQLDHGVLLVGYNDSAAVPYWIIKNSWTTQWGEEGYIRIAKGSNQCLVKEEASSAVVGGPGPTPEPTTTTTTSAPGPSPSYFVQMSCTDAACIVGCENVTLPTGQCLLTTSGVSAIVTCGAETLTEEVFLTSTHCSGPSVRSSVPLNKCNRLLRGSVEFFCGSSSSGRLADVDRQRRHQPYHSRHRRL
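Detergent-free condition (0.00005% Triton X-100) in acetate buffer pH 5.5 with DTT. 1.5 nM enzyme and compound were pre-mixed 15 min, then 2 uM Z-FR-AMC substrate added; reaction progress from fluorescence change between first and third reads (60 s).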
Lassa entry inh = blocks Lassa virus binding to or entry into cells | Lassa virus pseudotype entry inhibition, cell reporter; control for the full effect not named in the record | Potency, µM (top dose mostly 37.9 µM), without a hit: at the top dose activity change, negative = inhibition, most hits filed as inhibitors | 300,000 tested, 1.2% active | AID 540256; active means well fitted inhibition curve with a large enough effect; inconclusive means small, poorly fitted or top-dose-only effect, or effect the other way; inactive means flat fitted curve, though single readings scatter; tested in HEK293 cells; also: % is scaled to controls: 0 for no effect and ±100 for the full control effect; nearly all actives have a fitted effect of over 50% in size; luciferase read-out
2A StopGo = lowers the luciferase signal of an FMDV 2A StopGo reporter | human cells with a luciferase reporter of 2A StopGo recoding; control for the full effect not named in the record | Potency, µM (highest dose often 57.9 µM), inactives show at the top dose signal change, negative = less light | 410,000 tested, 1.2% active | AID 1159524; active = well fitted falling curve with a large enough effect; inconclusive = small, poorly fitted or top-dose-only effect; inactive = no such curve, though single readings can be large or run the other way; tested in HEK293T cells; also: % is scaled to controls: 0 for no effect and ±100 for the full control effect; nearly all actives have a fitted effect of over 45% in size; luciferase light after 4 h
Cruzain Triton = blocks cruzain activity in presence of Triton detergent. P25779. purified cruzain, Z-FR-AMC fluorescence, 0.01% Triton. Potency, µM, without a hit: max response, negative = inhibition, most hits filed as inhibitors. 200,000 tested, 0.43% active; active = well fitted curve in the direction sought with a large enough effect; inconclusive = small, poorly fitted or top-dose-only effect, or another doubt; inactive = no such curve, though single readings can be large; an effect the other way counts as inactive or inconclusive;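 also: plate controls were neutral wells for no effect and buffer without enzyme for full effect; nearly all actives have a fitted effect of over 40% in size; top concentration of the series not given in the record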
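15 min RT preincubation of 1.5 nM cruzain with compound, then 2 uM Z-FR-AMC added; kinetic AMC fluorescence, 60 s delta. Triton X-100 0.01%, pH 5.5.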
NS1 function inh = influenza NS1 inhibition | S. cerevisiae slowed by influenza A NS1, growth recovery by OD600 | Potency, µM (top dose mostly 46.1 µM), without a hit: at the top dose activity, positive = more growth | 270,000 tested, 0.4% active; also: actives are rising curves; nearly all actives have a fitted effect of over 50% in size
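Read-out: OD600 growth recovery of NS1-expressing budding yeast. Cells grown overnight at 30C in -URA glucose medium, washed, resuspended and diluted 1:100 in 2% galactose assay medium, pH 6.0. Same strain lacking NS1 served as positive control.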
Starred values were filed as active, the others as inactive; ? = inconclusive; . = no result given; [ ] = dose if it differs, or a comment. Unless noted, calls follow the shape of the dose curve; as a rule, active means well fitted rising curve with a large enough effect; inconclusive means small, poorly fitted or top-dose-only effect; inactive means no such curve, though single readings can be large or run the other way. Potency is read from the fitted curve at half-maximal effect.

SMILES	RE007 growth inh	SARS PLpro yeast	Marburg entry inh	Cruzain inh noDet	Lassa entry inh	2A StopGo	Cruzain Triton	NS1 function inh
O=C1CCC(C(=O)N2CCC(CCO)CC2)CN1Cc1ccc(Cl)cc1 (stereo not drawn)	1%	1%	14%	.	?	-15%	.	6%
CC(=O)N1CCc2cc(S(=O)(=O)N3CCCCC3C)ccc21 (stereo not drawn)	0%	-2%	.	.	.	-21%	.	3%
Cc1ccc(OCCCC(=O)Nc2cc(S(=O)(=O)N3CCOCC3)ccc2N2CCOCC2)cc1	4%	-4%	-17%	.	-11%	-8%	.	.
O=C(c1ccccc1)c1c[nH]c(C(=O)NCCCn2ccnc2)c1	-3%	-1%	-11%[46.1 µM]	4%	4%	-16%	-1.9%	10%
CCN(CC)CCNC(=O)Cn1nc(Cc2cccnc2)c2ccccc2c1=O	14%	-3%	.	-15%	.	-7%	0.7%	11%
COc1ccccc1C1(CCNS(=O)(=O)c2ccc(C)cc2)CCOC(C(C)C)C1 (stereo not drawn)	18%	-57%	?	-14%	?	-21%	-7.7%	6%
Cc1ccc(CSCC(=O)Nc2cc(S(=O)(=O)N3CCOCC3)ccc2OCC(F)(F)F)cc1	25%	.	-19%	.	?	-27%	.	.
COc1ccc(O)c(C(=O)c2cnc3c(c2)c(-c2ccc(F)cc2)c(C#N)c(=O)n3C)c1	9%	-3%	-1%[46.1 µM]	.	-3%	8%	.	-4%
COC(=O)N/N=C/c1ccc(-c2ccc(C)c(Cl)c2)o1	2%	-59%	?	4%	-4%	1%	-15%	-10%
CCOc1ccc(NC(=O)CCC(=O)N/N=C/c2ccc3c(c2)OCO3)cc1	11%	1%	-22%	.	5%	22%	.	.
Cc1cc(=O)oc2cc(OCC3CC(c4ccc(Br)cc4)=NO3)ccc12 (stereo not drawn)	-8%	-2%	?	-3%	-4%	1%	3.0%	-15%
C=CCn1c(O)c(N=NC(=O)CNC(=O)/C=C/c2ccc(OC)cc2)c2ccccc21	-4%	-1%	28%[46.1 µM]	.	-17%[46.1 µM]	8%	.	5%
CCC(Oc1ccc(C)cc1)C(=O)Nc1ccc(S(=O)(=O)Nc2cc(C)on2)cc1 (stereo not drawn)	-13%	2%	-2%[46.1 µM]	.	.	-9%	.	18%
CC1CCC(=NNc2ccc(C(F)(F)F)cc2[N+](=O)[O-])CC1 (stereo not drawn)	-7%	-13%	1%	1%	2%	-18%	-3.1%	-13%
C=CCn1c(C)c(C(C)=O)cc(NC(=O)c2ccccc2)c1=O	-6%	-1%	?	.	6%	2%	.	.
Nc1c(-c2nc(-c3ccc(Cl)cc3)cs2)c2ccccn2c1C(=O)c1ccc2c(c1)OCO2	.	.	-15%[46.1 µM]	-9%	4%[46.1 µM]	-4%	-0.9%	.
Cc1ccc(S(=O)Cc2ccc(C(=O)N3CCN(C4CCCCC4)CC3)o2)cc1 (stereo not drawn)	7%	2%	.	.	.	-9%	.	0%
CCOc1ccc(CN2CCN(C(=O)c3ccco3)CC2)cc1	0%	-3%	.	.	.	-7%	.	-2%
CSc1cccc(NC(=O)Nc2ccccc2)c1	2%	-15%	16%	-2%	0%	32%[activator]	-8.0%	-88%
CCCCn1c(=O)[nH]c(=O)c2c(C(=O)OCC)cc(-c3cccs3)nc21	-12%	-4%	?	.	?	?	.	4%
NS(=O)(=O)c1cccc(NC(=O)CSc2nc3ccccc3[nH]2)c1	3%	0%	.	.	.	-4%	.	1%
CC(OC(=O)c1cccnc1Cl)C(=O)Nc1ccc(S(N)(=O)=O)cc1 (stereo not drawn)	-11%	-1%	?	.	4%	2%	.	.
Cc1ccc(C)c(NC(=O)c2ccc(OC(=O)c3ccco3)cc2)c1	-10%	-10%	-3%	-9%	10%	11%	3.0%	-6%
O=C(CCC(=O)c1cccs1)OCC(=O)c1ccccc1F	-6%	5%	?	.	-5%	11%	.	.
CN(CC(=O)Nc1ccccc1Br)Cc1nc2ccccc2c(=O)[nH]1	12%	0%	-21%[46.1 µM]	3%	-5%	-18%	0.4%	-10%
SMILES	RE007 growth inh	SARS PLpro yeast	Marburg entry inh	Cruzain inh noDet	Lassa entry inh	2A StopGo	Cruzain Triton	NS1 function inh
Cc1cc(C)n2nc(CNC(=O)c3c(F)cccc3F)nc2n1	.	.	?	-13%	3%[46.1 µM]	-14%	-15%	.
CCOC(=O)C1=C(C)NC(=S)NC1c1cccs1 (stereo not drawn)	5%	-7%	?	-25%	-3%	0%	-2.6%	7%
Cc1ccc(SCC(=O)NCCC2=CCCCC2)cc1	-9%	-13%	?	-5%	11%	43%[activator]	1.0%	-27%
Cc1cc(N2CCN(C)CC2)ccc1NC(=O)c1c2c(nc3ccccc13)CCN(Cc1ccccc1)C2	0%	0%	?	.	?	-10%	.	8%
Cc1nn(Cc2ccccc2)c2c1C(c1ccco1)C(C#N)=C(N)O2 (stereo not drawn)	2%	-3%	4%	11%	-14%	-30%	-1.9%	-33%
COCCn1cnnc1SCC(=O)c1ccc(S(=O)(=O)N2CCCC2)cc1	-5%	-7%	2%[46.1 µM]	24%	-7%	-6%	-1.9%	9%
On1nnc2cc(C(F)(F)F)ccc21	3%	2%	?	.	10%	-5%	.	6%
N#Cc1nc(-c2ccc(COc3ccccc3)o2)oc1NCc1ccccc1	.	.	10%[46.1 µM]	-24%	-22%[46.1 µM]	-21%	-3.8%	.
NC(=O)CC(NC(=O)Cc1ccc(Cl)cc1)c1ccc(NCC2CC2)c([N+](=O)[O-])c1 (stereo not drawn)	-12%	7%	.	.	.	-1%	.	2%
COc1ccccc1CN1CCC(CNS(=O)(=O)c2cc(-c3cc(C)no3)ccc2C)CC1	6%	1%	.	.	.	9%	.	4%
CC(C)CN(C(=O)c1cccc(F)c1)c1c(N)n(CC(C)C)c(=O)[nH]c1=O	1%	0%	5%[46.1 µM]	.	0%	-1%	.	-8%
CCCN1CCN(C(=S)Nc2ccccc2C(F)(F)F)CC1	-4%	-29%	?	8%	-19%	-19%	0.2%	-5%
COc1ccc(-c2nc3c4ccccc4ccn3c2C=O)cc1	-8%	-1%	4%[46.1 µM]	.	14%	6%	.	4%
Cc1ccc(C(=O)OC2CCS(=O)(=O)c3sccc32)cc1 (stereo not drawn)	22%	0%	?	-3%	-14%	?	-4.7%	-13%
O=C(O)c1cc([N+](=O)[O-])c(Sc2nc3ccccc3[nH]2)c([N+](=O)[O-])c1	6%	1%	.	.	.	-7%	.	7%
COc1ccccc1/C=C1\SC(=S)N(CCC(=O)NCCCn2ccnc2)C1=O	6%	-2%	.	.	.	-7%	.	2%
COc1ccc(OC)c(C2C(C(=O)Nc3ccc(F)cc3)=C(C)Nc3nc(CCCO)nn32)c1 (stereo not drawn)	1%	-2%	-3%	3%	.	-12%	0.1%	-8%
O=C(NCC(c1cccnc1)N1CCc2ccccc21)c1ccccc1Br (stereo not drawn)	.	.	.	-14%	10%[46.1 µM]	-20%	-1.0%	.
COc1cc2ccc(=O)oc2cc1OCC(O)C(C)(C)O (stereo not drawn)	-9%	1%	.	.	.	-23%	.	1%
O=S(=O)(c1ccc(F)cc1)N1CCC(n2cnc3ccccc32)CC1	-25%	1%	-10%[46.1 µM]	.	7%	-12%	.	-2%
Nc1cccnc1Sc1ccc([N+](=O)[O-])cn1	26%	12%	?	-5%	4%	16%	-2.3%	9%
COc1cc(CN2CCCCC2)ccc1OCc1ccccc1	0%	2%	?	.	-1%[46.1 µM]	11%	.	14%
O=C1NC(=O)C2(Cc3cc([N+](=O)[O-])ccc3N3CCN(C(=O)c4ccccc4)CC32)C(=O)N1 (stereo not drawn)	-15%	-2%	3%[46.1 µM]	.	?	0%	.	-7%
NC(=O)c1nsc(C(=O)N(c2ccccc2)C(C(=O)NC2CCCC2)c2ccc3ncccc3c2)c1N (stereo not drawn)	-1%	-6%	-26%[46.1 µM]	.	.	?	.	5%
Cc1csc2nc(NC(=O)c3ccccc3)sc(=O)c12	0%	-2%	1%	.	13%	45%[activator]	.	-16%
SMILES	RE007 growth inh	SARS PLpro yeast	Marburg entry inh	Cruzain inh noDet	Lassa entry inh	2A StopGo	Cruzain Triton	NS1 function inh
COc1cc2ccccc2cc1C(=O)Nc1ccc(NC(=O)c2cccs2)cc1	-23%	0%	-36%[46.1 µM]	.	-12%	12%	.	-10%
Cc1ccccc1N1C(=O)CC2(CCCC2)CC1=O	-10%	1%	-3%[46.1 µM]	.	-15%[46.1 µM]	-11%	.	.
Cc1ccc(NC(=O)CCC(C(=O)O)N2C(=O)c3ccccc3C2=O)cc1 (stereo not drawn)	-14%	-5%	6%	-11%	-3%	37%[activator]	-0.7%	3%
CCn1cc(CNC(=O)c2ccc3nc(Cc4ccc(OC)cc4)oc3c2)cn1	1%	2%	-21%[46.1 µM]	.	-25%[46.1 µM]	-19%	.	-7%
Cc1cc(=O)oc2cc(OCC(=O)OCC(=O)Nc3ccccc3C(C)C)ccc12	-4%	-12%	2%	-7%	2%	-24%	-4.8%	-10%
CCN(CC)S(=O)(=O)c1ccc(=O)n(CC(=O)N2Cc3ccccc3CC2C(N)=O)c1 (stereo not drawn)	-10%	3%	-13%	.	7%	-10%	.	.
Cc1ccccc1-n1c(SCc2ccccn2)nc2n[nH]c(C)c2c1=N	0%	-7%	?	6%	?	0%	-0.5%	-21%
COc1cccc(Oc2cncnc2-c2ccc(OC)cc2O)c1	4%	-28%	?	-3%	?	1%	-2.8%	-140%
O=C(NC1CCCCC1)C(c1ccc(F)cc1)N(Cc1ccco1)C(=O)Cn1nnc2ccccc21 (stereo not drawn)	6%	6%	1%	-17%	-6%	6%	-0.2%	1%
Cc1c(NC(=O)C(C)OC(=O)COc2ccccc2)c(=O)n(-c2ccccc2)n1C (stereo not drawn)	-10%	-1%	-4%[46.1 µM]	.	0%	6%	.	.
COc1ccc(CCNC(=O)Cn2cc(C(=O)c3ccccc3)c(=O)c3ccc(C)nc32)cc1OC	.	.	.	-8%	16%[46.1 µM]	-22%	-3.8%	.

Assay outcomes as filed in PubChem BioAssay.
